T cruzi inh = T. cruzi replication inhibition | T. cruzi beta-gal in NIH3T3, luminescence, 90 h | inhibition, % (test concentration not listed) | 300,000 compounds, 1.4% hits;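 active means mean inhibition across valid replicates above about 55%, limit read from the data; inconclusive means mean below that limit but half or more replicates reach it; inactive means mean below it, under half of replicates reach it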;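 further: signal also drops with host cell toxicity which is not excluded here; 0% = plate median of DMSO wells and 100% = zero luminescence signal; higher percent means less beta-gal luminescence so fewer parasites; stock transfer was 50 nL into about 50 µL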
Vif TR-FRET = inhibitors of Vif binding to APOBEC3G peptide, primary screen, biochemical, TR-FRET, GST-Vif 1-94, biotin-A3G peptide, dose response retest (AID 1117319); TR-FRET GST-Vif / biotin-A3G peptide binding; higher % means a stronger effect; test concentration not given here; strong numbers were not always called active; one-dose inhibition, %; IC50 in µM for titrated hits; 260,000 compounds, 0.57% hits;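 active means above the screen mean plus three standard deviations and confirmed in dose response; inconclusive means results disagree or hit not tested in dose response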;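 further: Vif residues 1-94 fused to GST binding biotinylated APOBEC3G peptide 110-148; 0% = full assay without inhibitor and 100% = GST in place of GST-Vif; retest series ran down from 100 µM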
Calb FLC = C. albicans growth modulation with fluconazole; growth inhibition, % (concentration not given with the values); C. albicans CaCi-2 (fluconazole-resistant clinical isolate) + fluconazole, Alamar Blue growth, 48 h; AID 1979; 300,000 compounds, 0.57% hits;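 active means most replicates above 75%; inconclusive means exactly half above 75%; inactive means most below 75%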;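 further: all wells also contain fluconazole at 8 µg/ml as a sub-toxic cotreatment; 0% = median of DMSO wells and 100% = median of geldanamycin control wells; wells of about 8 µL received 7.5 nL stock; the first replicate is given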
RanGTP-Impb inh = inhibitors of RanGTP-importin-beta interaction, primary screen, biochemical, FRET, CFP-Ran, YFP-importin-beta, homogeneous; AID 2216; 300,000 compounds, 1.1% hits; inhibition, % (concentration not given with the values); cell-free CFP-Ran/YFP-importin-beta FRET ratio;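 active means most replicates above 15%; inconclusive means exactly half above 15%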;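 further: 0% = DMSO wells and 100% = Ran loaded with GDP instead of GTP; wells of about 40 µL received 100 nL stock; the first replicate is given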
Beta cell apopt = blocks beta cell apoptosis; 300,000 compounds, 0.8% hits; INS-1E cytokine-induced death, ATP luminescence, 48 h; percent of positive-control rescue, neutral wells zero; AID 435005; protection from apoptosis, % (test concentration not listed);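 active means all replicates at 75% or more, or half of them and the mean; inconclusive means half reach 75% but not the mean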;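 further: 0% = cytokine-treated negative control wells and 100% = positive control rescue; higher means more ATP so stronger rescue from cytokine killing; wells of about 40 µL received 100 nL stock; the first replicate is given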
Ecoli rRNA inh = inhibitors of bacterial rRNA selective over humanized ribosomes. E. coli WT GFP vs humanized-ribosome RFP mutants, fluorescence, 24 h; hits give low values; DMSO median 0, no signal -100. 350,000 compounds, 1.6% hits. GFP signal change (wild-type ribosome), % (no concentration beside the values);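 active means significant combined selectivity score with lowered wild-type GFP, culture density cut under 30%, mutant RFP and density less affected; inactive means any of these conditions unmet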; further: one replicate is shown; some compounds called inactive have numbers as strong as hits
A1 inh = inhibitors of the anti-apoptotic protein A1, read as caspase activation; MEF A1-2A-BIM cells, Caspase-Glo 3/7 luminescence, 3 h; percent of clofoctol response, vehicle zero; caspase activation, % (test concentration not listed); 330,000 compounds, 0.066% hits; AID 2462;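 active means over half of replicate activation scores above 10%, or exactly half above 10 with the replicate mean above 10; inconclusive means replicate mean below 10 yet half the replicates above 10; inactive means over half of replicates below 10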;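 further: wells of about 30 µL received 50 nL stock; many hits fall short of the cut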
MLL AF4-AF9 inh = MLL-AF4/AF9 protein interaction inhibition; AID 651704; inhibition, % at 10 µM; AlphaScreen, biotin-AF4 peptide binding to FLAG-AF9; 350,000 compounds, 0.47% hits; P42568;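 active means every replicate reaching a set inhibition limit, whatever the replicate mean, cut at about 25% in these data; inconclusive means mean inhibition reaches that limit but some replicates miss it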;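 further: 0% = plate neutral control median and 100% = total signal loss; the record names both 10 and 1 µM as test concentration; the first replicate is given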
Target sequence (P42568 whole entry, looked up): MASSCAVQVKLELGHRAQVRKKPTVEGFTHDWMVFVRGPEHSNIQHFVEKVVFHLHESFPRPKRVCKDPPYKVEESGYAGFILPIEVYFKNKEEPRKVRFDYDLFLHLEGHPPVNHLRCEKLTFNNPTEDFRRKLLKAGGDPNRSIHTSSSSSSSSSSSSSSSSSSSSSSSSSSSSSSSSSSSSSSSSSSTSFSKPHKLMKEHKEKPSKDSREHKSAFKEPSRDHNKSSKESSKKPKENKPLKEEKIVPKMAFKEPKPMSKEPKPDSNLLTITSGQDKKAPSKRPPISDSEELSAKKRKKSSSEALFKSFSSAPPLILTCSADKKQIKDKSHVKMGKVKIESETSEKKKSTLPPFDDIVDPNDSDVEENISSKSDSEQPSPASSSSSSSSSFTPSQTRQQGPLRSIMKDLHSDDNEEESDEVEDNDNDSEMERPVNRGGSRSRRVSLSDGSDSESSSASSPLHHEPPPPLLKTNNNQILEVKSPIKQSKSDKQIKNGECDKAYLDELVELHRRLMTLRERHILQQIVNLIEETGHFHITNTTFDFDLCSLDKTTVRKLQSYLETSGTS
Ecoli rRNA inh OD600 = recorded beside Ecoli rRNA inh, whose call it bears; OD600 change, %; measured here: OD600 growth;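 optical density of the mix in the first replicate; 0 = DMSO median and -100 = no signal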
Ecoli rRNA inh RFP = recorded beside Ecoli rRNA inh, whose call it bears; RFP signal change, %; measured here: RFP humanized mutant strains;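 first replicate; 0 = DMSO median and -100 = no signal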
Numbers without * were called inactive; ? = inconclusive; / = no result given.

SMILES	T cruzi inh	Vif TR-FRET	Calb FLC	RanGTP-Impb inh	Beta cell apopt	Ecoli rRNA inh	Ecoli rRNA inh OD600	Ecoli rRNA inh RFP	A1 inh	MLL AF4-AF9 inh
O=C(C1CC(=O)N(c2ccc3c(c2)OCCO3)C1)N1CCN(c2cccc(C(F)(F)F)c2)CC1 (stereo unspecified)	7	3%	6	-2.6	-5	10	7	1.3	0.1	-0.3
O=C(Nc1ccc(C(F)(F)F)cc1)C1(c2ccccc2)CC1	-6	/	-10	-1.1	-4	9	7	2.8	0.3	-1.5
COc1cc(OC)cc(C(=O)N[C@H](C(=O)OCC(=O)NC(=O)NC(C)(C)C)C(C)C)c1	1	1%	-4	0.4	-3	3	3	0.5	0.1	-0.6
Cn1c(N)c(C(=O)c2cc(-c3ccccc3)nc3ccccc23)c(=O)n(C)c1=O	3	-10%	-1	0.6	-5	/	/	/	-0.9	/
CCNc1nc(SCC(=O)OC)nc(N2CCOCC2)n1	-9	4%	-7	-4.1	/	/	/	/	0.9	/
Cn1c(SCC(=O)NC(=O)NCc2ccco2)nnc1C(F)(F)F	3	11%	6	4.0	6	/	/	/	-0.5	/
O=C1C2CCCCC2C(=O)N1c1cccc(OS(=O)(=O)c2ccccc2)c1 (stereo unspecified)	-21	/	5	-2.5	-8	/	/	/	0.0	/
CCC(=O)c1c[nH]c(C(=O)NCc2ccccc2OC)c1	-8	0%	-2	3.7	-1	4	1	-1.3	-0.2	7.8
CC(C)=C(NC(=O)c1ccccc1)C(=O)NCCc1nc2ccccc2[nH]1	22	/	-1	6.1	/	3	7	-0.1	-0.6	0.1
O=C(COC(=O)Cc1ccc(Br)cc1)Nc1ccc(Cl)cn1	/	/	/	/	0	-6	-10	0.6	-1.8	-0.4
CC(Oc1ccccc1F)c1ccnc2nc(/N=C/N(C)C)nn12 (stereo unspecified)	-4	6%	9	2.7	0	4	-2	-1.2	-0.4	-0.1
Cc1ccc2cc(CN(c3cccc(C)c3C)S(=O)(=O)c3ccccc3)c(=O)[nH]c2c1	41	-9%	-10	2.6	4	5	-5	3.2	0.1	-5.2
O=C(C1CCCN1S(=O)(=O)c1ccc(Cl)c(Cl)c1)N1CCCCC1 (stereo unspecified)	6	20%	-9	4.6	5	/	/	/	-0.2	/
O=C(c1cc(-c2ccccn2)nc2c(Cl)cccc12)N1CCN(S(=O)(=O)c2ccccc2)CC1	22	-5%	6	10	9	/	/	/	-0.8	/
CCN1CCc2c(sc(NC(=O)COc3ccccc3)c2C(=O)OC)C1	31	/	-1	87*	-8	-1	-2	0.3	0.6	3.0
O=S(=O)(c1ccccc1Br)N1CCN(c2ncccn2)CC1	2	/	0	-3.2	-9	-2	-3	1.8	-0.4	-1.0
CS(=O)(=O)N(CC(=O)NCCSCc1cccc(Cl)c1)c1ccc2c(c1)OCO2	23	?	-1	0.5	-4	/	/	/	0.4	/
CCOc1ccc(NC(=O)[C@@H](NC(=O)c2ccco2)C(C)C)cc1	2	/	-1	0.6	1	-3	-5	1.2	-0.9	1.2
O=C(NCCCN=C1NS(=O)(=O)c2ccccc21)c1ccncc1	2	4%	-11	-1.1	-3	/	/	/	-1.0	/
Cc1cc(C2C(C#N)=C(N)SC(N)=C2C#N)c(C)s1	-3	1%	13	34*	3	/	/	/	3.2	/
COc1ccc(S(=O)(=O)N(CC(=O)NCC2CCCO2)c2ccccc2)cc1OC (stereo unspecified)	-24	-6%	-9	3.7	2	/	/	/	-0.6	/
Cc1cc2c(N=NC(=O)CCc3ccccc3)c(O)[nH]c2cc1Br	7	/	0	1.9	-6	/	/	/	-1.4	/
CCn1c(SCC(=O)N/N=C/c2ccc(C)o2)nnc1-c1ccccc1	-7	29%	-21	-1.7	3	/	/	/	-0.1	/
CS(=O)(=O)Nc1ccc(C(=O)NCCSc2ccc(Cl)cc2)cc1	-9	-1%	-4	-3.1	-4	-1	-4	-6.5	-0.2	-0.1
COc1ccc(-c2nnc(NC(=O)c3ccc(S(=O)(=O)N4COCC4(C)C)cc3)o2)cc1	62*	10%	68	-3.3	/	/	/	/	0.4	/
CCCC(CCC)C(=O)Nc1ccc2c(c1)N(C(=O)CN1CCN(C)CC1)c1ccccc1CC2	19	15%	-17	4.1	1	-6	-3	0.3	-1.3	3.9
COc1cc(C(=O)COC(=O)c2ccncc2)cc(OC)c1OC	/	-3%	/	/	-4	7	11	-1.3	0.8	-1.5
CCCCOc1ccc(-c2nnc(-c3ccncc3)o2)cc1	21	0%	39	-0.2	/	/	/	/	-3.6	/
CCc1nnc(NS(=O)(=O)c2ccc(NC(=S)NC(=O)c3ccc(F)cc3)cc2)s1	-11	?	33	0.7	/	-25	-45	-17	0.5	-19
CCc1ccc(OCC(=O)O/N=C(\N)Cc2ccc([N+](=O)[O-])cc2)cc1	25	-2%	-9	5.7	3	/	/	/	0.0	/
CC(=O)c1cc(C#N)c(SCC(=O)O)nc1C	-11	2%	-2	-1.1	-2	/	/	/	0.0	/
CC(C)c1onc(C(=O)N(C)Cc2ccccc2)c1[N+](=O)[O-]	-11	/	-5	-2.5	-16	11	-3	-2.3	0.0	-0.6
CCCn1c(SCC(=O)Nc2nc(-c3ccc(OC)cc3)cs2)nc2c1c(=O)n(C)c(=O)n2C	8	-19%	2	1.1	-2	/	/	/	0.3	/
S=C(NCc1ccccc1)NCc1ccc(CNC(=S)NCc2ccccc2)cc1	4	-7%	5	-0.4	0	/	/	/	0.4	/
Cc1nn(C(=O)c2cccs2)c(C)c1CN1C(=O)c2ccccc2C1=O	-10	-4%	-12	1.4	1	4	10	-4.5	1.3	-9.6
O=C(NC1CCCCC1)C(=S)NC1CCCCC1	21	-12%	1	0.3	0	/	/	/	1.5	/
COc1ccc(OC)c(NC(=O)c2oc3c(c2C)C(O)CC(C)(C)C3)c1 (stereo unspecified)	25	-6%	-10	1.8	-1	-35	-28	-6.7	-1.3	11
CCCC(=O)Nc1cc(Cl)ccc1C	-3	/	-18	3.2	-2	11	8	-3.0	-1.3	-1.4
Cc1cccc(C(=O)NCc2nnc(SCC(=O)Nc3nnc(C)s3)n2C)c1	-25	/	-5	3.5	-5	6	10	-1.3	-0.4	0.6
O=C(Nc1ccc(F)cc1)C1CCCN(S(=O)(=O)c2ccc(-n3cnnn3)cc2)C1 (stereo unspecified)	-4	/	-6	0.0	-4	2	1	-2.7	0.3	-2.1
Nc1ccc(O)cc1C(=O)OCC(=O)c1ccc(C2CCCCC2)cc1	12	10%	-18	0.7	-1	/	/	/	0.4	/
CC1=C(C(=O)NCc2ccccc2)C(c2ccc(C)o2)n2ncnc2N1 (stereo unspecified)	-10	-1%	-17	2.5	-1	/	/	/	-0.4	/
O=S(=O)(NC1=NCCC1)c1cccc(NS(=O)(=O)c2ccc(OC(F)(F)F)cc2)c1	-10	/	-13	3.7	-2	/	/	/	0.0	/
CCc1nnc(NC(=O)c2sc3nc4c(cc3c2N)CCCCCC4)s1	-9	/	30	8.3	8	/	/	/	-1.9	/
COCCOC(=O)c1cc(C(=O)c2cc(Cl)ccc2O)coc1=N	7	/	8	?	-7	-5	0	-2.1	0.3	-0.7
CCOC(=O)C(=O)Nc1ccccc1C(=O)OCC	-7	3%	-5	0.1	-8	9	1	-0.3	-0.5	-1.3
CCOc1ccc(NC(=O)CCN2C(=O)C3CCCCC3C2=O)cc1OCC (stereo unspecified)	4	2%	3	-0.5	3	8	14	-2.3	0.4	6.1
COc1ccc(/C=C(/NC(=O)c2cccs2)C(=O)NC(C)(C)C)cc1OC	-19	-7%	-1	1.1	-17	-3	-1	-2.7	0.7	0.7
O=C(O)CNC(=O)C12CC3CC(CC(Cl)(C3)C1)C2	-5	7%	41	-3.5	-6	19	23	2.0	0.7	0.1
O=C(COC(=O)c1ccccc1Br)Nc1cc(S(=O)(=O)N2CCOCC2)ccc1N1CCCC1	4	/	0	0.9	-1	-8	-11	1.6	1.3	1.4

(more compounds)
SMILES	T cruzi inh	Vif TR-FRET	Calb FLC	RanGTP-Impb inh	Beta cell apopt	Ecoli rRNA inh	Ecoli rRNA inh OD600	Ecoli rRNA inh RFP	A1 inh	MLL AF4-AF9 inh
Cc1ccc2cc3c(NC(=O)C4CCCO4)nn(CC(C)C)c3nc2c1 (stereo unspecified)	15	-6%	-9	31*	/	/	/	/	0.6	/
CC(=O)Nc1cccc(NC(=O)c2cccc(S(=O)(=O)N3CCN(Cc4ccccc4)CC3)c2)c1	30	0%	-2	?	-2	-2	-13	-3.5	-0.7	-9.1
COc1cccc(-c2noc(CCC(=O)NCC3CCCO3)n2)c1 (stereo unspecified)	-9	2%	3	1.3	-23	3	1	4.9	-0.2	-1.8
CC(C)C(C(=O)NCC1CCCO1)N(Cc1ccccc1)C(=O)CNS(=O)(=O)c1ccccc1 (stereo unspecified)	5	/	0	2.7	5	3	3	-1.6	-0.9	-4.6
CCc1cccc(C)c1NC(=O)CCCN1C(=O)NC(C)(C)C1=O	/	3%	/	/	-13	6	7	-3.8	0.2	-1.7
O=C(CSc1nc(C2CC2)nc2ccccc12)Nc1ccccc1	18	/	-6	-1.4	-12	-2	8	-2.4	-0.8	-0.2
COCCCn1c(=O)/c(=C\c2ccccc2OC(F)F)s/c1=C(/C#N)C(=O)NC(C)C	14	4%	0	0.6	1	/	/	/	-0.8	/
C=CSc1sc(Cl)c(N2CCOCC2)c1[N+](=O)[O-]	-12	-7%	-1	5.7	5	-22	-24	-1.2	0.2	-3.2
CN1CCC(CNC(=O)Nc2ccccc2)(c2ccccc2)CC1	-6	0%	3	-0.1	-11	9	5	-2.3	-1.1	-5.8
Cc1ccccc1C(=O)N1CCC(C(=O)Nc2ccc3c(c2)OCO3)CC1	1	18%	-10	-0.8	2	4	4	-1.7	0.0	1.3
CC(=O)Nc1ccc(N2C(=O)c3ccc(C(=O)Nc4nnc(SCc5ccc(F)cc5)s4)cc3C2=O)cc1	-9	-4%	-13	-0.7	-12	/	/	/	0.0	/
CCC(C)NC(=O)CSc1c2c(nc3ccccc13)CCCC2 (stereo unspecified)	32	/	3	5.9	-3	-4	-1	3.5	0.3	2.3
COc1ccc(NC(=O)CC(CC(=O)O)c2cc(OC)c(OC)c(OC)c2)cc1 (stereo unspecified)	-8	16%	10	?	3	3	10	-1.3	-0.4	-0.3
COc1ccc(S(=O)(=O)NCc2csc(C)n2)cc1	-9	-2%	7	-0.1	3	/	/	/	0.0	/
Cn1nnnc1NCc1c(F)cccc1Cl	-5	26%	5	-0.1	/	/	/	/	0.3	/
O=C(N/N=C/c1cn(-c2ccccc2)nc1-c1ccc(F)cc1)c1ccc2c(c1)OCO2	12	16%	13	2.0	10	/	/	/	-0.8	/

The list is partial; rates above refer to the full screens.
